VDR inh: Inhibitors of the vitamin D receptor (VDR): qHTS. Vitamin D3 receptor (Homo sapiens), P11473. VDR-SRC2-3 peptide fluorescence polarization, 2 h. 400,000 tested, 0.93% active. Potency, µM, inactives show max response, negative = inhibition, hits mostly inhibitors; active = well fitted inhibition curve with a large enough effect; inconclusive = small, poorly fitted or top-dose-only effect, or another doubt; inactive = no such curve, though single readings can be large or run the other way; note: series mostly up to about 120 µM
Target sequence (P11473 whole entry, looked up): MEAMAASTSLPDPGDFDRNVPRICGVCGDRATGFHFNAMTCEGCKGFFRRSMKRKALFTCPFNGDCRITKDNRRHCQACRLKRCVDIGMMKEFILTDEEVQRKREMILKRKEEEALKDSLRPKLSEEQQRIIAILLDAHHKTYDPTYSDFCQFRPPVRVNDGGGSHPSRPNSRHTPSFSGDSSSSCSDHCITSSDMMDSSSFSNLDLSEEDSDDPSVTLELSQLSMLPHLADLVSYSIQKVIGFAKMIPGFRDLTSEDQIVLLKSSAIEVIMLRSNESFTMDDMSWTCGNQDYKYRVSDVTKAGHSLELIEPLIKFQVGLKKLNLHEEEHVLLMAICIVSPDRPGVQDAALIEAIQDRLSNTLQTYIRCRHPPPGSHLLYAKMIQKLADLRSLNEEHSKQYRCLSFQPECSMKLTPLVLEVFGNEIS
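Two reagent solutions held at 4 deg C in the dark were dispensed, compounds pinned at 23 nl, and the mixture incubated 2 h at room temperature. Read-out: fluorescence polarization of VDR–SRC2-3 peptide binding.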
The depositor's hits bear a star; ? = inconclusive; & = joins results of further samples. % is set by controls: 0 for no effect and ±100 for the full control effect; potency is the fitted concentration of half-maximal effect. An excerpt, so the mix of outcomes need not match the whole.

Start of the data: the first 3 entries, to show the layout:
SMILES	VDR inh
COc1cc(C(=O)NCCOc2ccccc2)cc(OC)c1OC	-3.4%
COc1ccc(NC(=O)Cn2c(=O)oc3cc(S(=O)(=O)N4CCCC4)ccc32)c(OC)c1	5.2%
O=C(O)c1cc2sccc2s1	?

The listing, repeating the preview:
SMILES	VDR inh
COc1cc(C(=O)NCCOc2ccccc2)cc(OC)c1OC	-3.4%
COc1ccc(NC(=O)Cn2c(=O)oc3cc(S(=O)(=O)N4CCCC4)ccc32)c(OC)c1	5.2%
O=C(O)c1cc2sccc2s1	?
Cc1ccc(C)c(N2CCN(S(=O)(=O)c3ccc4c(c3)n(C)c(=O)c(=O)n4C)CC2)c1	-6.4%
Cc1cccc2cc(/C=C3\N=C(c4ccccc4)OC3=O)c(N3CCOCC3)nc12	6.0%
COc1ccccc1-c1nnc(SCc2nc3ccccc3[nH]2)n1C	7.4%
CCN(CC(=O)Nc1ccc(NC(C)=O)cc1)C(=O)C1CCC1	-8.5%
CCc1c(C(=O)NNC(=S)NC2CCCCC2)csc1C	10.2%
Cc1c(C(=O)NCc2ccccc2Br)oc2ccc3c(c12)C(=O)CC(C)(C)O3	0.5%
Cc1ccc(S(=O)(=O)CC(=O)Nc2ccccn2)cc1	10.2%
Cc1nc(-c2ccc3c(c2)OCCCO3)cs1	5.7%
COc1ccc(CCNC(=O)C2CCN(C(=O)N(C)C)CC2)cc1OC	-6.0%
CC1(C)Cc2c(cnn2-c2ccccc2)C(NC(=O)CCc2ccncc2)C1 (configuration not stated)	-1.2%
CCn1nc(C(=O)Nc2ccc(N3CCOCC3)cc2)c2ccccc2c1=O	1.9%
O=c1cc(C(F)(F)F)[nH]c2c(C(F)(F)F)cccc12	2.9%
COc1cc2[nH]c(=O)n(CCCCCC(=O)NCCCN3CCOCC3)c(=O)c2cc1OC	-7.9%
Clc1ccc(-c2n[nH]c3c2CCCC3)cc1	-9.2%
CCOC(=O)COc1nc2c(c(-c3ccco3)c1C#N)CCc1ccccc1-2	-18.9%
Cc1nnc2sc(-c3csc4c3CCCC4)nn12	-1.1%
CSCc1ccc(C(=O)NC(C)c2cnn(-c3ccccn3)c2C)o1 (configuration not stated)	-12.8%
CC(C)c1nnc(NC(=O)C2CCN(C(=O)Nc3ccc(Cl)cc3)CC2)s1	-15.8%
O=C(COC(=O)c1ccc2ncsc2c1)Nc1cc([N+](=O)[O-])ccc1Cl	3.8%
Cc1cccc(NC(=O)CCNC(=O)c2ccco2)c1C	-6.8%
COc1ccccc1NC(=O)C1=C(C)Nc2nc(CCCO)nn2C1c1cccnc1 (configuration not stated)	-0.2%
Cc1cc(C(=O)NNC(=O)c2ccc(S(=O)(=O)N(C)C)cc2)c(C)o1	0.2%
O=C1CC(c2ccc3c(c2)OCO3)c2cc(O)ccc2O1 (configuration not stated)	?
CCN(CC)S(=O)(=O)c1ccc(Cl)c(NC(=O)CSc2cccc[n+]2[O-])c1	-11.3%
COc1ccc(Oc2c(Cl)cnn(-c3ccc(Cl)c(Cl)c3)c2=O)cc1	29.6%
CC(C)C(NS(=O)(=O)c1cccc2cccnc12)C(=O)Nc1ccc(OC(F)(F)F)cc1 (configuration not stated)	4.3%
COc1ccccc1C(=O)N/C(=C/c1ccc(Br)cc1)C(=O)NCC(=O)O	15.4%
CCOC(=O)c1oc2c(c1C)-c1nn(Cc3ccc(Cl)cc3)cc1CC2	3.9%
COC(=O)c1c(C)[nH]c(C(=O)COC(=O)c2c(C)noc2C)c1C	2.1%
NC(=O)c1ccc(SCC(=O)OCC(=O)N2CCCCC2)c([N+](=O)[O-])c1	-13.1%
CC(=O)c1ccc(OC(=O)CCc2ccccc2)cc1	20.9%
Cn1ccnc1Sc1ccc(C(N)=O)cc1[N+](=O)[O-]	-7.4%
COc1ccc(-c2noc(N3CCCC(C(=O)Nc4ccccc4F)C3)n2)cc1 (configuration not stated)	-6.4%
COc1ccc(CNC(=O)CN(CC2CCCO2)C(=O)CNS(=O)(=O)c2ccc(F)cc2)cc1 (configuration not stated)	-8.9%
COc1cccc(NC(=O)COc2c(F)c(F)c(C(F)(F)F)c(F)c2F)c1	-5.7%
Cc1cc(C)c(-n2nnnc2SCC(=O)c2cc3ccccc3o2)c(C)c1	-1.4%
Cc1cc2nc3n(c2cc1C)CC1CC(C(=O)NCc2ccco2)N(C)C31 (configuration not stated)	-24.6%
NC(=O)c1c(NC(=O)c2cccnc2)sc2c1CCCC2	-6.2%
Cc1ccc(NC(=O)c2ccc3c(c2)N(CC(=O)N2CCCCC2)C(=O)C(C)(C)O3)cc1	-0.1%
Cc1cc(NC(=O)C(C)SCC(=O)N(Cc2ccccc2)c2ccccc2)no1 (configuration not stated)	-6.5%
Cc1cc(C)n2nc(CCCO)nc2n1	-17.0%
CCCC1CC(CCc2ccccc2)OS(=O)(=O)N1 (configuration not stated)	-9.4%
C[N+](C)(C)CCOc1ccc([N+](=O)[O-])cc1	4.4%
Cc1ccc(Nc2c([N+](=O)[O-])c(=O)n(C)c3ccccc23)cc1	4.4%
COc1cccc(-c2cn3c(n2)sc2cc(C(=O)NCCc4ccc(OC)c(OC)c4)ccc23)c1	7.6%
COc1ccc(NC(=O)CN(C)C(=O)c2ccc(N3CCCCC3)c([N+](=O)[O-])c2)cc1	-4.7%
CC1CCN(C(=O)c2ccccc2NC(=O)Cc2ccccc2)CC1	-7.1%

Next section
SMILES	VDR inh
Fc1ccc(-n2ncc3c(NCCCn4ccnc4)ncnc32)cc1	8.9%
CC(=O)c1csc(COc2ccc(Cl)cc2)n1	4.8%
O=C(Cn1nnc(-c2ccc(CN3CCOCC3)cc2)n1)Nc1nc(-c2ccccc2)cs1	17.3%
CCN(CC)c1ccc(C(=O)OCC(=O)Nc2cc(C)on2)cc1	-11.6%
Cn1c(=O)c2c(SCC(=O)N3CCc4ccccc43)nc(-c3ccccc3Cl)nc2n(C)c1=O	3.8%
CCc1ccc(NC(=S)NCc2ccccc2)cc1	-1.0%
Fc1ccc(-c2csc(N3CCOCC3)n2)cc1	-16.1%
Cc1ccc(S(=O)(=O)NC2CC(C)(C)NC(C)(C)C2)cc1	-6.1%
Cc1cc(N/N=C/c2ccncc2)c([N+](=O)[O-])cc1[N+](=O)[O-]	-5.8%
CC(=O)C1=C(O)C(=O)N(CCNCCO)C1c1ccccc1 (configuration not stated)	9.1%

Individual results from the entries so far.
VDR inh with `CC(=O)C1=C(O)C(=O)N(CCNCCO)C1c1ccccc1` (configuration not stated) → 9.1%
VDR inh with `Fc1ccc(-c2csc(N3CCOCC3)n2)cc1` → -16.1%

More entries.
SMILES	VDR inh
Cc1cccc(C)c1NC(=O)CSc1nc(COc2ccccc2)nc2ccccc12	18.1%
CCc1ccc(OCCOCC(O)CNC(C)CC)cc1 (configuration not stated)	-13.3%
ON1C(c2ccccc2)CC2(O)c3nonc3CCC12 (configuration not stated)	15.3%
Cn1c(/C(C#N)=C(\O)CN2CCN(Cc3ccccc3)CC2)nc2ccccc21	0.6%
COc1cccc(OCCNc2ccc([N+](=O)[O-])cn2)c1	-1.1%
O=c1c2ccccc2ncn1CCOc1ccccc1[N+](=O)[O-]	-18.4%
CCn1c(NC(C)=O)c(-c2ccccc2Cl)c(=O)c2ccccc21	-10.5%
O=C1CC(NS(=O)(=O)c2cccs2)CN1c1cccc(F)c1 (configuration not stated)	-5.2%
Cc1ccc(-n2c(=O)c3c(cnn3C)n(CC(=O)Nc3cccc(C)c3)c2=O)cc1	-1.6%
CCc1cccc(NC(=O)C(Cc2ccccc2)n2cccc2)c1 (configuration not stated)	7.2%

Shown bar-delimited: part of the list above.
mol | VDR inh
NC(=O)c1c(NC(=O)c2cccnc2)sc2c1CCCC2 | -6.2%
CC(C)c1nnc(NC(=O)C2CCN(C(=O)Nc3ccc(Cl)cc3)CC2)s1 | -15.8%
O=C1CC(NS(=O)(=O)c2cccs2)CN1c1cccc(F)c1 (configuration not stated) | -5.2%

The listing continues.
SMILES	VDR inh
C#CCOC(=O)CCC(=O)NCCc1ccccc1	2.2%
O=[N+]([O-])c1ccc(S(=O)(=O)Nc2nnc(C(F)(F)F)s2)cc1	-5.1%
CCN1CCN(C(c2ccccn2)c2c(NC(=O)c3ccccc3)sc(C)c2C)CC1 (configuration not stated)	?
CCOC(=O)CC1=CSC2=NS(=O)(=O)CCN12	-12.6%
c1ccc2c(Nc3ccc(N4CCOCC4)cc3)nc(N3CCOCC3)nc2c1	-0.3%
Cc1ccc(C)c(C(=O)COC(=O)c2n[nH]c3ccccc23)c1	-0.6%
O=C(NC1CCCCC1)c1ccc2c(c1)sc1nc(-c3ccccc3)cn12	14.3%
CCOC(=O)/C=C1/SCC(=O)N1CC(=O)Nc1ccc2c(c1)CCC2	-8.3%
COc1cc(NS(=O)(=O)c2ccc(NC(=O)Cc3ccccc3)cc2)nc(OC)n1	-5.9%
Cc1ccc(C(=O)NNC(=O)c2ccc3c(c2)OCCO3)cc1	-6.8%

Shown as comma-separated lines: part of the list above.
SMILES,VDR inh
CCOC(=O)/C=C1/SCC(=O)N1CC(=O)Nc1ccc2c(c1)CCC2,-8.3%
C#CCOC(=O)CCC(=O)NCCc1ccccc1,2.2%
O=C(NC1CCCCC1)c1ccc2c(c1)sc1nc(-c3ccccc3)cn12,14.3%
O=[N+]([O-])c1ccc(S(=O)(=O)Nc2nnc(C(F)(F)F)s2)cc1,-5.1%

Further structures follow.
SMILES	VDR inh
CCc1ccc(NC(=O)CSc2nc3nc(C)cc(C)n3n2)cc1	-7.9%&5.2%
Cc1ccc2nc(SCC(=O)N3CCCC3)[nH]c2c1	3.7%
COC(=O)NCC(c1ccco1)N1CCN(c2ccc(F)cc2)CC1 (configuration not stated)	3.4%
CCCCNc1cc(N2CCN(C3CCCCC3)CC2)c2noc3c2c1C(=O)c1ccccc1-3	-19.3%
COc1cccc(OCCCCCN2CCOCC2)c1	-17.3%
CC(C)[C@H](NC(=O)OC(C)(C)C)C(=O)N1CCC(C(=O)N[C@@H](C)C(=O)Nc2ccc(F)cc2)CC1	-8.7%
CCOc1c(/C=C(\C#N)C(N)=O)c2ccccc2n1CC	-16.1%
CCCOc1ccc(/C=N/NC(=O)c2ccc3c(c2)OCO3)c(OCCC)c1	17.1%
CC(=O)c1cccc(NC(=O)N2CCCCCC2)c1	-10.0%
O=C(Nc1cc(N2CCOCC2)ncn1)c1ccc(F)cc1	-16.9%
O=C(O)c1ccc(N2C(=O)c3[nH]nc(-c4ccccc4)c3C2c2cccc(F)c2)cc1 (configuration not stated)	?
COc1ccc(NC(=O)CCN2CCN(c3ccccc3F)CC2)c(OC)c1	3.2%
Cc1c(NC(=S)NC(=O)c2ccc(Cl)cc2)c(=O)n(-c2ccccc2)n1C	23.1%
COc1cccc(N2C(=O)CC(Sc3nc(C)cc(C)n3)C2=O)c1 (configuration not stated)	11.3%
COc1ccc(CCNC(=O)c2cccnc2Cl)cc1OC	-10.6%
Cc1ccc(CNC(=O)c2cccnc2)cc1	3.3%
Cc1cc(C)c2nc(NC(=O)c3cc(C)on3)sc2c1	7.3%
O=S(=O)(Cc1ccccc1)/C1=C(\N2CCOCC2)CCCCCC1	22.9%
CCNC(=O)COC(=O)Cc1ccc(Cl)cc1Cl	9.3%
COc1ccc(CN2CCCC(CNC(=O)c3ccc(F)cc3)C2)c(C)c1C (configuration not stated)	-5.6%
O=C(Nc1c(F)cc(F)cc1Br)c1ccco1	-9.5%
O=C(/C=N\O)NCCCNCc1ccccc1	9.0%
COc1cccc(CN(C)C(=O)c2cc(S(=O)(=O)NC3CCCCC3)ccc2C)c1OC	-2.7%
CN=c1sc2ccccc2n1CC(O)COCc1ccco1 (configuration not stated)	9.0%
Cc1cccc(-n2c(C)nc3cc(C(=O)NCCC4=CCCCC4)ccc32)c1	7.7%
CSc1ccc(/C=C/C(=O)N2CCCN(C)CC2)cc1	-24.2%
O=CN/C=C/c1cc(O)ccc1O	-13.1%
CC12CCC(C(=O)NCc3ccc4c(c3)OCO4)(C(=O)C1=O)C2(C)C (configuration not stated)	-8.7%
COc1ccc(/C=C2\CC/C(=C\c3ccc(OC)c(OC)c3)C2=O)cc1OC	?
Cc1ccc(-c2nnn3c2nc(NCC(C)c2ccccc2)c2ccccc23)cc1 (configuration not stated)	-2.4%
COc1cccc(Nc2ncc3nc(-c4cccs4)c(=O)n(Cc4cccs4)c3n2)c1	0.4%
CCCCn1c(-c2ccccc2)nc2c(=O)n(C)c(=O)[nH]c21	-20.1%
CCOc1cc2[nH]c(=O)n(CCCCC(=O)N3CCN(c4ccc(OC)cc4)CC3)c(=O)c2cc1OCC	16.7%
c1ccc(NC2=NCCCCS2)cc1	-4.9%
CCN(CC)CC(=O)Nc1ccc(C)cc1C(=O)c1ccccc1	-24.0%
Cc1cccc(NC(=O)CN2C(=O)N/C(=C/c3ccc(C)o3)C2=O)c1	?
O=C(NC1CCC(c2ccccc2)CC1)c1cccnc1 (configuration not stated)	21.7%
O=C1Nc2cc(C(=O)N3CCN(c4ccccn4)CC3)ccc2S/C1=C\c1ccccc1	-12.9%
COc1cccc(NC(=O)CSC(N)=O)c1	22.4µM*
CC1=C(C(=O)Nc2ccccc2)C(c2cccs2)n2nc(SCc3ccccc3F)nc2N1 (configuration not stated)	?
Cc1nn(C(=O)c2c(-c3ccccc3)noc2C)c(C)c1N=Nc1cc(C(F)(F)F)cc(C(F)(F)F)c1	2.6%
CS(=O)(=O)Nc1nc2n(n1)C(c1ccccc1)CC(c1ccccc1)N2 (configuration not stated)	17.6%
CC(NC(=O)Cc1cccs1)c1ccc2c(c1)OCO2 (configuration not stated)	-13.7%
O=C(CCN1C(=O)COc2ccccc21)NCCC1=CCCCC1	-3.0%
COC(=O)CSC1=C(C#N)C(c2ccsc2)CC(=O)N1 (configuration not stated)	19.2%
CCCCNC(=O)O/N=C(\N)CS(=O)(=O)C(C)(C)C	5.4%
CC(=O)Nc1ccc(S(=O)(=O)NCc2nc(-c3ccc(C)cc3)no2)cc1	-14.4%
O=C(OCC(=O)c1cccs1)c1cccc(C(=O)OCC(=O)c2cccs2)n1	6.0%
COc1ccc(CNC(=O)CN(Cc2ccc(F)cc2)C(=O)CCC(=O)Nc2nccs2)cc1	9.6%

High-throughput results as filed in PubChem.
